AmpC inh no det = inhibitors of E. coli AmpC beta-lactamase without detergent; P00811; AmpC nitrocefin hydrolysis, absorbance 480 nm, no detergent; potencies from a single point are estimates; Potency, µM (titrated, usually from 28.7 µM), without a hit: at the highest dose activity change, negative = inhibition; 71,000 tested, 1.8% active; active = falling curve, for most hits resting on a single point; inconclusive = weak or doubtful change; inactive = flat or rising curve; also: % of control where 0% means no effect; about half of the hits show no inhibition at the top dose; a quarter of the inactives give rising signals
Target sequence (P00811 whole entry, looked up): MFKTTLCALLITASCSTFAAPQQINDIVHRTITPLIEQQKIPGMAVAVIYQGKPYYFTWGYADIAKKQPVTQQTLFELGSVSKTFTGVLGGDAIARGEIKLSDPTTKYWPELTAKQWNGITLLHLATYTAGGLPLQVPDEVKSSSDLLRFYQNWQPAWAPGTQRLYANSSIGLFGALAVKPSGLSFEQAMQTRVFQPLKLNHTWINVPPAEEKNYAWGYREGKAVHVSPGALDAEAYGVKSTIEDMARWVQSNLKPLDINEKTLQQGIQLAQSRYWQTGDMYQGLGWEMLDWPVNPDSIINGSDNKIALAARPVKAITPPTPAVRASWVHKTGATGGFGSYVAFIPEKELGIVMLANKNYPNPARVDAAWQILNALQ
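AmpC in 20 mM phosphate buffer pH 7.0 was preincubated 15 min at room temperature with compounds. Nitrocefin (800 uM stock) was then added and hydrolysis followed at 480 nm every 20 s for 4 min.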
* marks the source's active call; other numbers are inactive results; ? = inconclusive; [ ] = dose if it differs, or a comment. Potency is read from the fitted curve at half-maximal effect.

SMILES	AmpC inh no det
CC(C)(C)c1ccc(C(=O)CCCSC2=C(C#N)C(c3ccco3)C3=C(CCCC3=O)N2)cc1 (centres undefined)	-6%
O=C(CSc1nnc(-c2ccncc2)o1)Oc1ccccc1	-9%
COc1ccccc1N1CCN(C(=O)c2cc3n(n2)C(C(F)(F)F)CC(c2ccco2)N3)CC1 (centres undefined)	104%
COc1ccc(-n2c(C)cc(C(=O)COC(=O)Cn3cnc4ccccc43)c2C)cc1	68%
O=C1OCc2cc(NC(=O)C3CCCO3)ccc21 (centres undefined)	-14%
CC(C)(C)C1=Nn2c(nnc2-c2n[nH]c3c2CCC3)SC1	5%
O=C(Nc1ccccc1)N(O)c1ccc(Cl)cc1	-12%
O=C(Nc1c(C(=O)N2CCCCC2)cnn1-c1ccccc1)c1ccccc1	9%
CC1(C)CC(=O)C(C=NCc2ccccn2)=C(O)C1	19%
c1ccc(Cc2nc(-c3ccccn3)no2)cc1	5%
COC(=O)CN1C(=O)C(O)(CC(=O)c2ccc(Cl)cc2)c2ccccc21 (centres undefined)	36%
CCC1SC2=NCCN2C1(O)c1ccc(Cl)cc1 (centres undefined)	0%
COc1cc(C(=O)N2CCN(C(=O)COc3ccc4ccccc4c3)CC2)cc(OC)c1OC	150%
O=C(O)c1ccc(NC(=O)C2C3CCC(C3)C2C(=O)O)cc1 (centres undefined)	-6%
C[C@]1(C(=O)NCCN2CCOCC2)C=C[C@@H](Cc2ccccc2)N1C(=O)c1ccccc1	102%
COc1cc2[nH]c(=S)n(CCCN3CCOCC3)c(=O)c2cc1OC	-8%
COc1ccccc1N1CCN(Cc2cccc(OC)c2OC)CC1	27%
CN1CCN(Cc2ccc(OCc3ccccc3)cc2)CC1	18%
COCCn1c(=O)c(CCc2ccccc2)nc2cnc(Oc3ccccc3)nc21	61%
Cc1cc(OCc2nn[nH]n2)c2c(-c3ccccc3)cc(=O)oc2c1	-4%
COc1ccccc1CNc1ncncc1-c1ccc(N(C)C)cc1	56%
NC(N)=NS(=O)(=O)c1ccc(N)cc1	-6%[12.8 µM]
O=C(c1cc2c(s1)CCCC2)N1CCN(Cc2ccc3c(c2)OCO3)CC1	73%
CC(C)(C)Sc1nc(O)cc(=O)[nH]1	-10%
O=C(CCC1CCCC1)N1CCN(C2CCCC2)CC1	16%
CCOC(=O)c1ccc(S(=O)(=O)Nc2ccccc2-c2nnn(CC)n2)cc1	25%
CC(=O)Nc1nnc(Cc2ccccc2)s1	-15%
COCC(=O)N1CCC[C@@]2(CCN(C(=O)Nc3ccccc3)C2)C1	4%
Cc1nnc(SCCn2c(N3CCN(C)CC3)nc3c2c(=O)n(C)c(=O)n3C)s1	-8%
N=C1C(c2nc3ccccc3s2)=C(O)CN1CCCO	2%
CCCS(=O)(=O)N1CCC(C(=O)NCc2ccco2)CC1	-11%
CCCCCNC(=O)CCn1c(=O)oc2ccccc21	13%
CC1CCCCC12NC(=O)N(CC(=O)c1ccc[nH]1)C2=O (centres undefined)	4%
Cc1ccccc1Cc1c(C)nc2c(C(=O)N3CCN(Cc4ccc5c(c4)OCO5)CC3)cnn2c1C	125%
Cc1cccc(-c2nnc3n2N=C(c2ccccc2Br)CS3)c1	15%
O=C(Cn1cnc2c(oc3ccccc32)c1=O)NCc1ccco1	8%
COc1ccc(OC)c(S(=O)(=O)N2CCC(C(=O)N3CCc4ccccc4C3)CC2)c1	72%
CCOc1ccccc1C1N(c2ccc(F)cc2)C(=O)C2CCCN21 (centres undefined)	37%
CC1CN=C(Nc2cccc3ccccc23)S1 (centres undefined)	-3%
COCc1nnc(NC(=O)c2ccc(S(=O)(=O)N(C)C3CCCCC3)cc2)o1	-13%

17 of the compounds above, bar-delimited.
Molecule | AmpC inh no det
CC(C)(C)Sc1nc(O)cc(=O)[nH]1 | -10%
O=C(CCC1CCCC1)N1CCN(C2CCCC2)CC1 | 16%
CCOC(=O)c1ccc(S(=O)(=O)Nc2ccccc2-c2nnn(CC)n2)cc1 | 25%
CC(=O)Nc1nnc(Cc2ccccc2)s1 | -15%
COCC(=O)N1CCC[C@@]2(CCN(C(=O)Nc3ccccc3)C2)C1 | 4%
Cc1nnc(SCCn2c(N3CCN(C)CC3)nc3c2c(=O)n(C)c(=O)n3C)s1 | -8%
N=C1C(c2nc3ccccc3s2)=C(O)CN1CCCO | 2%
CCCS(=O)(=O)N1CCC(C(=O)NCc2ccco2)CC1 | -11%
CCCCCNC(=O)CCn1c(=O)oc2ccccc21 | 13%
CC1CCCCC12NC(=O)N(CC(=O)c1ccc[nH]1)C2=O (centres undefined) | 4%
Cc1ccccc1Cc1c(C)nc2c(C(=O)N3CCN(Cc4ccc5c(c4)OCO5)CC3)cnn2c1C | 125%
Cc1cccc(-c2nnc3n2N=C(c2ccccc2Br)CS3)c1 | 15%
O=C(Cn1cnc2c(oc3ccccc32)c1=O)NCc1ccco1 | 8%
COc1ccc(OC)c(S(=O)(=O)N2CCC(C(=O)N3CCc4ccccc4C3)CC2)c1 | 72%
CCOc1ccccc1C1N(c2ccc(F)cc2)C(=O)C2CCCN21 (centres undefined) | 37%
CC1CN=C(Nc2cccc3ccccc23)S1 (centres undefined) | -3%
COCc1nnc(NC(=O)c2ccc(S(=O)(=O)N(C)C3CCCCC3)cc2)o1 | -13%

The results go on.
SMILES	AmpC inh no det
Cc1[nH]nc2c1C(c1ccccc1F)NC2=O (centres undefined)	-11%
CSc1nncc(-c2ccc(F)cc2)n1	8%
CCCCOc1ccc(-c2nnn(C(C)(C)C(=O)OC)n2)cc1	71%
C=CCNC(=O)C1CC(=O)N(c2ccc(C)cc2)C1 (centres undefined)	2%
COc1ccc(CNc2cc(-c3ccoc3)ncn2)c(OC)c1	56%
C=CCN1CCN(C(c2ccc(Cl)cc2)c2nnnn2CCc2ccc(OC)c(OC)c2)CC1 (centres undefined)	89%
CCOC(=O)C1CCN(C(=O)Nc2ccc3c(c2)nc(C)n3C)CC1	9%
CCOC(=O)c1ccc(Oc2cc(C)nc(SC)n2)cc1	45%
Nc1c(C(=O)Nc2ccccc2)sc2nc(-c3ccco3)ccc12	-19%
CCn1cc(C(=O)NCc2ccccc2OC)c(=O)c2cc(S(=O)(=O)N(C)C)ccc21	111%
O=S(=O)(NCc1ccccn1)c1cccc2nsnc12	1%
O=C(Cn1cnc2ccccc2c1=O)NCC(=O)N1CCN(Cc2ccc3c(c2)OCO3)CC1	44%
NC[C@H](O)c1ccc(O)cc1	-12%[12.8 µM]
COc1cc(NC(=O)C(C)Oc2ccccc2)c(C(=O)O)cc1OC (centres undefined)	4%
CCSC1=C(C#N)C(c2cccc(OC)c2)CC(=O)N1 (centres undefined)	-13%
CC1Cc2ccccc2N1S(=O)(=O)c1cccc(C(=O)NC2CC2)c1 (centres undefined)	14%
CN(C)C(=O)c1cc(S(=O)(=O)N(C)C)c(Cl)cc1N1CCCC1	7%
C#CCNc1nc(CC)nc2c1nnn2Cc1ccccc1F	-10%
COc1ccc(-n2nnnc2SCC(=O)Nc2ccc3c(c2)OCCO3)cc1OC	5%
O=C(CCn1nnc2ccccc21)Nc1nnc(COc2ccc(F)cc2)s1	-5%
COc1ccc(N(C(=O)c2ccco2)C(C(=O)NC2CCCC2)c2ccc(N(C)C)cc2)cc1 (centres undefined)	78%
Cc1noc(/C=C/N(C)C)c1S(=O)(=O)N1CCCC(C(=O)N2CCCCC2)C1 (centres undefined)	133%
N#CC1=C(N)Oc2n[nH]c(-c3ccccc3)c2C1c1cccc(OC(=O)N2CCOCC2)c1 (centres undefined)	64%
N#CC1(C#N)C2=C(CCCC2)NC(c2ccccc2)C1(C#N)C#N (centres undefined)	1%
CCC(=O)Nc1c(C)ccc2nsnc12	2%
CS(=O)(=O)NCC(c1cccnc1)N1CCN(c2ccc(F)cc2)CC1 (centres undefined)	4%
Cc1ccc2nc(C3CCCN(C(=O)NCc4ccccc4)C3)[nH]c2c1 (centres undefined)	5%
N#Cc1cccc(CSc2nnc(CCCO)n2-c2ccccc2)c1	35%
CCOC(=O)C1CCN(C(=O)COC(=O)COc2ccccc2OC)CC1	5%
C=CCNc1ncnc2c1cnn2-c1ccc(C)cc1C	11%
O=c1cc(CSc2nnc(-c3ccccc3)o2)c2ccccc2[nH]1	6%
CC(=O)c1cccc(NC(=O)Nc2cc3sccc3n2C)c1	12%
C=C(C)c1cccc(C(C)(C)NC(=O)N2CCCC(C(N)=O)C2)c1 (centres undefined)	8%
CSC1=C(C#N)C(c2ccccc2Cl)C2=C(CCCC2=O)N1 (centres undefined)	-4%
O=C1CC(c2ccccc2)n2nc(NC(=O)C3CCCO3)nc2N1 (centres undefined)	-10%
c1ccc2c(c1)nc1sccn12	-7%
O=C(Nc1ccc2c(c1)nc1n2CCSC1)c1ccccc1	-4%
COC1=CC(=O)OC(CCc2ccc3c(c2)OCO3)C1 (centres undefined)	4%
O=C(CCSc1nc(-c2ccco2)cc(C(F)(F)F)n1)N1CCN(c2ccccn2)CC1	117%
COc1ccc(-n2c(=O)c(C)nc3cnc(OC)nc32)cc1	46%
CSCCC(NC(=O)C1CCC(C)CC1)C(=O)NCc1ccco1 (centres undefined)	2%
Cc1nnc(SCCn2c(N3CCC(Cc4ccccc4)CC3)nc3c2c(=O)[nH]c(=O)n3C)s1	84%
Cc1nc(NCCO)c2nc(-c3ccccc3)n(CCCN(C)C)c2n1	5%
O=c1cc(CSc2ccccn2)[nH]c(=O)[nH]1	3%
CCOC(=O)CSc1nnc(CNC(=O)c2ccc(OC)c(OC)c2)n1C	-1%
Cc1cc(-c2ccccc2N)n[nH]1	-2%
CC(=O)N1CC=C2C(C#N)=C(N)C(C#N)(C#N)C(CCc3ccccc3)C2C1 (centres undefined)	41%
CNc1ncncc1-c1ccc(C(=O)N(C)C)cc1	0%
COCCCNc1ccnc2c(Cl)cccc12	-10%
CCOc1ncccc1C(=O)Oc1ccc2c(c1)OCO2	-14%

Given as labelled records: entries from further up
Cc1nnc(SCCn2c(N3CCC(Cc4ccccc4)CC3)nc3c2c(=O)[nH]c(=O)n3C)s1
  AmpC inh no det = 84%

Cc1nc(NCCO)c2nc(-c3ccccc3)n(CCCN(C)C)c2n1
  AmpC inh no det = 5%

Next section
SMILES	AmpC inh no det
Cc1nc2cnc(N3CCNCC3)nc2n(Cc2cccs2)c1=O	9%
Nc1nc(Nc2cccc(F)c2)nc2ccccc12	?
c1ccc(-n2c(SCC3CCCCO3)nnc2-c2cnccn2)cc1 (centres undefined)	25%
CCOc1ccccc1NC(=O)CN(C)S(=O)(=O)c1ccc(OC)c(C)c1	39%
Cc1cc(C)nc(/N=C(\N)C2=C(O)CC(C)(C)CC2=O)n1	12%
CCCCCOc1ccc(C2NC(=O)NC2=O)cc1 (centres undefined)	16%
CC(C)(C)C1(c2ccccc2)NC(=O)N(CC(=O)N2CCOCC2)C1=O (centres undefined)	22%
Cc1ccccc1Cn1c(=N)n(CC(O)c2ccco2)c2ccccc21 (centres undefined)	-11%
Cc1cc(N2CCN(C(=O)c3ccco3)CC2)n2nc(C)c(-c3ccccc3)c2n1	113%
O=C(NCc1cccs1)c1nc2c(nnn2Cc2ccccc2Cl)c(=O)[nH]1	-18%
C=CCOc1ccc(C2C(C(=O)c3ccco3)=C(O)C(=O)N2Cc2cccnc2)cc1 (centres undefined)	-12%
CCOc1cc(C)c(Cl)cc1S(=O)(=O)N(C)C	15%
Cc1ccc(OCCn2c(NC(=O)c3ccco3)nc3ccccc32)cc1	26%
CCOc1ccc2nc(N3CCC(C(=O)N4CCN(c5ccccn5)CC4)CC3)sc2c1	118%
CCOC(=O)c1c(-c2ccco2)csc1N	-3%
C[N+](C)(C)CCOC(=O)CCC(=O)OCC[N+](C)(C)C	4%
CCCCn1c(O)c(C(C)=NC(C)c2ccccc2)c(=O)[nH]c1=O (centres undefined)	8%
COc1ccccc1NC(=O)C(C)NS(=O)(=O)c1ccc(Cl)cc1 (centres undefined)	-7%
O=S(=O)(Nc1ncnc2sc3c(c12)CCC3)c1ccc(Cl)s1	-19%
O=C(C1CC1)n1cc(C(=S)N2CCOCC2)c2ccccc21	90%
COC(=O)Nc1nnc(Cc2ccccc2)s1	4%
Cc1cc(C)c(C#N)c(SCc2ccc3c(c2)OCO3)n1	-12%
Cc1ccccc1-c1ccc2ncnc(N3CCNCC3)c2c1	25%
Fc1ccc(-n2c(-c3ccco3)nc3nc4ccccc4nc32)cc1	-3%
O=C(C1CC(c2ccc(F)cc2)=NO1)N1CCN(c2ccccc2)CC1 (centres undefined)	4µM*[single pt active]
Cc1cc(/C=N/n2cnnc2)c(C)n1-c1ccc(OCc2ccccc2F)cc1	98%
Cc1ccc2nc(NC3=NCN(Cc4ccco4)CN3)nc(C)c2c1	7%
COc1ccc(NC(=O)CN(c2cc(C)cc(C)c2)S(=O)(=O)c2c(C)n[nH]c2C)cc1	50%
Cc1ccc2c(C)nc(Nc3nc(CSc4nnnn4-c4ccccc4)cc(=O)[nH]3)nc2c1	73%
Cc1nn(C)cc1CNC(=O)c1cnn2c1NC(c1ccc(Br)cc1)CC2C(F)(F)F (centres undefined)	176%
CCCCNC(=O)CC1N=C2c3ccccc3N=C(SCC(=O)Nc3cccc(C)c3)N2C1=O (centres undefined)	45%
Cc1onc(-c2ccccc2)c1C(=O)Nc1ccccc1C#N	1%
CCCCCCCCCC(=O)O[C@H](CC(=O)O)C[N+](C)(C)C	39%
Cc1nc(N2CCN(C)CC2)c2sc(=S)n(-c3ccccc3)c2n1	21%
Cc1cccc(-n2c(N)cc(=O)nc2SC(C)C(=O)NC2CCCCC2)c1 (centres undefined)	25%
Cc1ccc(C)c(C(=O)CSc2n[nH]c(C)n2)c1	4%
CCN1CCN(Cc2ccc(NC(=O)Nc3cccs3)cc2)CC1	4%
Cn1c(=O)c2c(nc(CN3CCN(CCO)CC3)n2Cc2cccc3ccccc23)n(C)c1=O	51%
CC(C)C1Oc2ccccc2N(CC(=O)N(Cc2ccccn2)CC2CCCO2)C1=O (centres undefined)	85%
CCN(CC)CCN1C(=O)C(O)=C(C(=O)c2ccc(C)o2)C1c1ccccn1 (centres undefined)	-9%
Fc1ccccc1C(c1nnnn1Cc1ccc2c(c1)OCO2)N1CCN(Cc2ccccc2)CC1 (centres undefined)	42%

Bioassay records deposited in PubChem by National Center for Advancing Translational Sciences (NCATS).

These rows are one share of the data; count on the stated rates, not on these rows.
